CDC25B CDK2 inh: human CDC25B-CDK2/CyclinA binding inhibition | P30305+P24941 | HTRF CDC25B-CDK2/CyclinA binding, anti-His/anti-Flag; active compounds read high | z-score (no concentration beside the values) | 0.72% of 94,000 active | AID 1259370;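 further: score is relative to mean and SD of negative controls; strong numbers were not always called active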
TAR Tat displ: HIV-1 TAR-Tat binding disruption. HIV-1 TAR RNA, Tat peptide displacement FRET; active compounds read high. z-score (test concentration not listed). 0.6% of 100,000 active. AID 1259389;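 further: score is relative to mean and SD of negative controls; some compounds called inactive have numbers as strong as hits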
Numbers without * were called inactive; nt = not tested or not shown.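 How the source made its calls: active means z-score from 3 up in half or more of its runs; inactive means the rest.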 Hits appear at their usual frequency; overall some 0.87% were active at least once.

#	Molecule	CDC25B CDK2 inh	TAR Tat displ
1	CCOC(=O)C1=C(c2ccccc2)NC(=O)NC1c1ccc(OC)c2ccccc12 (stereo not drawn)	2.5	nt
2	CN(NC1OC(=O)c2ccccc21)c1c([N+](=O)[O-])cc(C(F)(F)F)cc1[N+](=O)[O-] (stereo not drawn)	-0.92	nt
3	COc1ccc(C2CC(=O)C3=C(C2)NC(=O)CC3c2ccc(Br)cc2)cc1 (stereo not drawn)	2.3	2.2
4	CN(C1CCCCC1)C1CCCCC1NS(=O)(=O)c1ccc(Cl)cc1 (stereo not drawn)	-1.9	-0.56
5	CCCC(=O)N1C2=C(C(=O)c3ccccc32)C(c2ccc(Cl)cc2)c2c1n(C)c(=O)n(C)c2=O (stereo not drawn)	-0.55	0.98
6	Cn1ccc2cc(S(=O)(=O)N3CCCC(C(=O)NCCC4=CCCCC4)C3)ccc21 (stereo not drawn)	nt	0.24
7	CCc1ccc(C2C(C(=O)OC(C)C)=C(C)NC3=C2C(=O)CC(C)(C)C3)cc1 (stereo not drawn)	-1.4	1.6
8	Cc1nn(-c2cccc(Cl)c2)c2nc(-c3ccncc3)cc(C(F)(F)F)c12	-0.57	0.66
9	Cc1cccc(Nc2c(-c3cccs3)nc3ncccn23)c1C	-2.4	0.52
10	CSc1nc(NC(C)(C)C)nc(Oc2ccc(=O)[nH]n2)n1	0.66	-0.87
11	O=C(CSc1nccn1C1CCCCC1)Nc1ccc2c(c1)OCCO2	nt	1.8
12	CC1CCCCN1CCNc1ncnc2scc(-c3ccc(Cl)cc3)c12 (stereo not drawn)	nt	0.12
13	COc1ccc(Nc2nc3ccccc3c3nnc(C)n23)cc1	-1.3	1.3
14	CCn1ccc2cc(S(=O)(=O)N3CCC(C(=O)NCC4CCCO4)CC3)ccc21 (stereo not drawn)	nt	0.21
15	CC(C)(C)NC(=S)N1CCSCC1	-0.57	nt
16	CNC(=O)c1c(NC(=O)c2ccc3c(c2)OCCO3)sc2c1CCC(C)C2 (stereo not drawn)	nt	1.7
17	Cc1ccc(NCc2n[nH]c(=S)n2-c2ccccc2)cc1	-0.07	nt
18	CCOC(=O)/C(C#N)=C1\NC=CC=C1OC(C)=O	-2.5	nt
19	O=C1CC(Nc2ccc(N3CCOCC3)cc2)C(=O)N1c1ccccc1 (stereo not drawn)	-1.2	-0.63
20	Cc1oc(C(C)(C)C)cc1C(=O)O	-1.8	nt
21	COc1nc2c(C)cccc2cc1-c1noc(C)n1	-3.2	0.4
22	CCOC(=O)N1CCc2c(sc3c2C(=O)NC(c2ccc(OC)cc2OC)N3)C1 (stereo not drawn)	0.71	0.79
23	CC1=C(c2ccc(Cl)cc2)S(=O)(=O)NC1=NCCCN1CCN(C)CC1	-1.4	0.09
24	CCOC(=O)/C(C#N)=C/NN(C)c1ccccc1[N+](=O)[O-]	-1.9	nt
25	CCOc1ccc(C2CC(=O)Nc3nc(SCC)[nH]c(=O)c32)cc1OC (stereo not drawn)	-1.1	1.4
26	Cn1ncc2c(NCc3ccc(Cl)cc3)nc(N3CCN(CCO)CC3)nc21	nt	0.97
27	COCCCNC(=O)C(NS(=O)(=O)c1cccs1)C(C)C (stereo not drawn)	nt	1.2
28	O=C(Cn1ncn2nc(-c3cccs3)cc2c1=O)NC1CCCCC1	-8.3	0.34
29	COc1ccccc1C1CC(=O)C2=C(C1)NC(C)=C(C(=O)OCC1CCCO1)C2c1ccc(F)cc1 (stereo not drawn)	-0.11	-0.16
30	NC(=O)c1nc(-c2cccnc2)nc2c1[nH]c(=O)n2C1CCCCC1	-1.3	nt
31	COc1ccc(OC)c(CN2CCN(Cc3ccc4c(c3)OCO4)CC2)c1	-0.45	0.34
32	CC1CCN(S(=O)(=O)c2cn(CC(=O)N3CCC(N4CCCCC4)CC3)cn2)CC1	nt	1.4
33	CCCCn1c(CN2CCCCC2)nc2c1c(=O)n(C)c(=O)n2C	0.2	nt
34	FC(F)(F)c1cc(-c2ccc(-c3ccn[nH]3)o2)cc(C(F)(F)F)c1	-1.1	nt
35	O=C(NCc1cccnc1)c1ccc2cn[nH]c2c1	nt	-2.6
36	O=S(=O)(c1cccc(Cl)c1)c1nnn2c1nc(NC1CCCC1)c1sccc12	nt	-0.05
37	CCCCCCS(=O)(=O)CC#N	-0.32	nt
38	NC(=O)c1nc(-c2c(F)cccc2Cl)nc2c1[nH]c(=O)n2-c1ccc(Cl)cc1	nt	1.5
39	Cc1csc2nc(COC(=O)CC(C)C)cc(=O)n12	nt	-0.19
40	c1ccc(-c2nc3c4ccccc4nc(NCc4cccnc4)n3n2)cc1	-1	-0.65
41	COc1ccc(C2CC(=O)N3CN(c4ccc(Cl)cc4)CSC3=C2C#N)c(OC)c1 (stereo not drawn)	6*	0.43
42	O=C(CCC(=O)N1CCOc2ccccc21)NCCC1=CCCCC1	-2.2	-2.2
43	COc1c(C[C@H](NC(C)=O)C(=O)O)cccc1OCC1CCCC1	-1.5	nt
44	Cc1nc2ccccn2c(=O)c1NC(=O)c1ccccc1Br	nt	0.61
45	CCOC(=O)C1CCN(c2ccccc2CN2CCN(c3ccccc3OCC)CC2)CC1	0.01	nt

Rewritten field by field: part of the list above
35: O=C(NCc1cccnc1)c1ccc2cn[nH]c2c1
  CDC25B CDK2 inh = nt; TAR Tat displ = -2.6
36: O=S(=O)(c1cccc(Cl)c1)c1nnn2c1nc(NC1CCCC1)c1sccc12
  CDC25B CDK2 inh = nt; TAR Tat displ = -0.05

Exported with values under each structure: part of the list above
Below each SMILES – CDC25B CDK2 inh | TAR Tat displ
32: CC1CCN(S(=O)(=O)c2cn(CC(=O)N3CCC(N4CCCCC4)CC3)cn2)CC1
    nt | 1.4
33: CCCCn1c(CN2CCCCC2)nc2c1c(=O)n(C)c(=O)n2C
    0.2 | nt

(more compounds)
#	Molecule	CDC25B CDK2 inh	TAR Tat displ
46	CC(=O)Oc1ccccc1C(=O)O	-2.5	0.82
47	Cc1csc2nc(COC(=O)c3cccs3)cc(=O)n12	nt	-1.9
48	Fc1ccc(-c2cn3cc(Cc4ccccc4)sc3n2)cc1	-0.22	-0.74
49	Cn1cnc(S(=O)(=O)NC2CCCC2)c1	nt	1
50	O=C(NCC(c1ccco1)N1CCOCC1)c1cc(-c2cccs2)on1 (stereo not drawn)	-0.74	-0.83
51	CC1CC(=O)c2c(F)c(F)cc3c(=O)c(C(=O)O)cn1c23 (stereo not drawn)	-2.6	nt
52	Cc1nn2cnnc2c(C)c1CCC(=O)O	-0.81	-0.59
53	Cc1nn(CCCC(=O)NCCCN2CCC(N3CCCCC3)CC2)c(=O)c2cc3occc3n12	-2.7	-0.14
54	CCc1nn(C(CC)C(=O)NC2CCCc3ccccc32)c(=O)c2cc3occc3n12 (stereo not drawn)	-1.9	0.8
55	C=CCN(C(=O)c1sc2nc3n(c(=O)c2c1C)CCCCC3)c1ccccc1	nt	1.6
56	O=C1CCCc2cc(S(=O)(=O)N3CCCC(C(=O)N4CCCCC4)C3)ccc2N1 (stereo not drawn)	nt	2.7
57	CN(C)c1ccc(C(CNS(=O)(=O)c2ccc3c(c2)OCCO3)N2CCCC2)cc1 (stereo not drawn)	nt	0.43
58	CCCNS(=O)(=O)c1ccc2c(c1)CC(C)N2C(=O)C1CCC1 (stereo not drawn)	nt	-1.8
59	CN1CCN(c2ncnc3c2oc2ccc(Cl)cc23)CC1	-0.29	nt
60	Cc1cc(=O)c2c(O)c3c(O)cc(O)c4c5c(O)cc(O)c6c(O)c7c(=O)cc(C)c8c1c2c(c34)c(c65)c78	nt	7.8*
61	CCOc1c(Nc2ccc(C)cc2C)c(=O)c1=O	nt	1.1
62	CC(C)(CC(=O)NCCc1cc2ccccc2[nH]1)CC1=NS(=O)(=O)c2ccccc2N1	nt	1.4
63	Cn1c(=O)n(C)c2cc(S(=O)(=O)Nc3ccc(Cl)cc3)ccc21	-1.1	0.44
64	Cn1c(=O)n(Cc2ccccc2)c(=O)c2c1nc(Br)n2Cc1ccccc1	0.37	nt
65	COC(=O)c1cc(C#N)c(=S)[nH]c1C(OC)OC	-1	nt
66	CC(C)C(C(=O)NC1CCCCC1)N1Cc2ccccc2C1=O (stereo not drawn)	nt	-0.81
67	Fc1ccc(CN2CCc3nc(N4CCN(c5ccccn5)CC4)ncc3C2)cc1F	nt	-0.11
68	Cc1nc(-c2ccc(C)c(S(=O)(=O)Nc3ccc(Br)cc3F)c2)cs1	nt	2
69	O=C(Nc1nc2nc(-c3ccccc3)cc(=O)n2[nH]1)C1CCCCC1	-1.1	0.88
70	COC(=O)c1scc(-c2ccccc2)c1S(=O)(=O)Nc1ccc2c(c1)OCO2	nt	0.43
71	Cc1nc2ccccn2c(=O)c1NC(=O)c1cccc(Br)c1	nt	1
72	O=c1c(NCc2ccc(Cl)cc2)nccn1-c1ccc2c(c1)OCO2	nt	0.27
73	CSc1cccc(NC(=O)CCS(=O)(=O)c2ccc3c(c2)oc(=O)n3C)c1	nt	1.4
74	Cn1c(=O)n(C)c2cc(N3CCOCC3)c(NC(=O)c3ccco3)cc21	-0.31	1.1
75	CCOC(=O)c1ccc(N2C(=O)c3n[nH]c(C)c3C2c2ccc(C(=O)OC)cc2)cc1 (stereo not drawn)	nt	-0.34
76	CCOCCOC(=O)C1=C(C)NC2=C(C(=O)CC(c3cccs3)C2)C1c1ccc(O)c(OC)c1 (stereo not drawn)	-0.86	-0.32
77	CCOC(=O)c1cc(OC(=O)c2cccs2)n(-c2ccccc2)n1	0.19	0.97
78	COC(=O)C1=NN(c2ccc(Cl)cc2)C2C(=O)N(c3ccccc3OC)C(=O)C12 (stereo not drawn)	-0.21	1.5
79	CCN1CCN(c2nc(N(CC)CC)nc3c2cnn3C)CC1	nt	0.95
80	COC(=O)c1sc(N2C(=O)C(O)=C(C(=O)c3cccs3)C2c2ccc(F)cc2)nc1C (stereo not drawn)	-1.1	-0.64
81	COc1ccc(CCNS(=O)(=O)c2c(C)nc3sc(C)cn3c2=O)cc1OC	nt	0.3
82	O=S(=O)(NCCc1csc2nc(-c3ccc(F)cc3)nn12)c1ccc2c(c1)OCCO2	nt	0.78
83	O=C(O)c1cnc2ccccc2c1N1CCOCC1	-1	1.5
84	O=C1NC(c2cccs2)C(C(=O)c2ccccc2)C(O)(C(F)(F)F)N1 (stereo not drawn)	-1.3	nt
85	CCOCCCNC(=O)c1sc2ncnc(N(C)C3CCCCC3)c2c1C	nt	1.5
86	O=S(=O)(Nc1ccc(-c2cnco2)cc1)c1ccc(Cl)c(Cl)c1	-0.52	nt
87	Cc1nc(N(C)C)ncc1C(=O)Nc1ccc2c(c1)OCO2	nt	2.2
88	O=c1c(NCc2ccc3c(c2)OCO3)c(-c2ccc(Cl)cc2)c1=O	nt	-1.2
89	O=C1c2cc(S(=O)(=O)O)ccc2CCC1S(=O)(=O)O (stereo not drawn)	-1.2	nt
90	CCOC(=O)C1=NN(c2ccc(C)cc2)C2C(=O)N(c3ccc(Br)cc3)C(=O)C12 (stereo not drawn)	-0.13	-2.3
91	CC(C)CCNC(=O)C1CCN(S(=O)(=O)c2ccc3c(c2)CC(C)N3C(=O)C2CC2)CC1 (stereo not drawn)	nt	-0.93
92	Brc1ccc(C2=Nn3c(CSc4ccccc4)nnc3SC2)cc1	3.1	1.6
93	CC(C)Nc1nc(-c2cccnc2)nc2ccccc12	1.2	nt
94	Cc1ccc(-n2ncc3c2ncn2nc(COc4ccc(Cl)cc4)nc32)cc1C	-1.6	1.2
95	O=C(Cn1ncc2c([nH]c3ccccc32)c1=O)NCCC1=CCCCC1	nt	4.6
96	CCOc1c(N2CCN(c3cccc(Cl)c3)CC2)c(=O)c1=O	nt	0.3
97	CCc1cc2c(NCCN3CCCCC3C)ncnc2s1 (stereo not drawn)	nt	0.56
98	CN(CCN1CCOCC1)C1CCN(S(=O)(=O)c2ccc3c(c2)CCCC(=O)N3)CC1	nt	0.26
99	O=C(NCc1ccc2ncccc2c1)Nc1ccc(F)cc1	nt	-1.3
100	c1ccc(CNc2ccc3c(c2)ncn3C2CCCCC2)nc1	-1.1	-0.22
101	Cc1ccc(CN2c3ccccc3S(=O)(=O)c3ccccc32)cc1	nt	-1.7
102	CCOc1cc(C2NC(=O)c3n[nH]c(-c4cccs4)c32)ccc1O (stereo not drawn)	-0.74	2
103	CC(NC(=O)C1OC2OC(C)(C)OC2C2OC(C)(C)OC12)C(=O)Nc1ccc(Br)cc1 (stereo not drawn)	-0.27	nt
104	O=C(CC1NCCN(Cc2ccccc2)C1=O)Nc1ccccc1 (stereo not drawn)	1.4	nt
105	COC(=O)[C@@]1(C)CC[C@]2(C)CC[C@]3(C)C(=CC(=O)C4[C@@]5(C)Cc6cnoc6C(C)(C)C5CC[C@]43C)C2C1 (stereo partly drawn)	-4.2	nt

Exported field by field: part of the list above.
#95 O=C(Cn1ncc2c([nH]c3ccccc32)c1=O)NCCC1=CCCCC1
  CDC25B CDK2 inh: nt	TAR Tat displ: 4.6

#92 Brc1ccc(C2=Nn3c(CSc4ccccc4)nnc3SC2)cc1
  CDC25B CDK2 inh: 3.1	TAR Tat displ: 1.6

#98 CN(CCN1CCOCC1)C1CCN(S(=O)(=O)c2ccc3c(c2)CCCC(=O)N3)CC1
  CDC25B CDK2 inh: nt	TAR Tat displ: 0.26

(list continues)
#	Molecule	CDC25B CDK2 inh	TAR Tat displ
106	CCC(C)NC(=O)CSc1nc2c(c(=O)[nH]1)CCC2 (stereo not drawn)	-1.6	1.4
107	COC(=O)C(C(=O)Nc1cc(C)on1)C1CCCC1 (stereo not drawn)	-0.5	0.17
108	CCC(=O)Nc1nc2ccc(NC(=O)c3[nH]nc4c3COc3ccccc3-4)cc2s1	nt	-0.6
109	CCOCCCNS(=O)(=O)c1ccc(-c2ccc(=O)[nH]n2)o1	nt	0.48
110	O=C(Nc1ccc(Br)cc1F)C1CCN(c2nnc(-n3cccc3)s2)CC1	-1.8	nt

Bioassay records deposited in PubChem BioAssay by Center for Chemical Genomics, University of Michigan.
